Compound activity (PubChem)
Beta2AR agonist – beta2AR agonists driving receptor internalization, primary screen, cell-based, FAP fluorogen, flow cytometry; 0.43% of 340,000 active; response, % (test concentration not listed); Am2.2-beta2AR cells; reference of the scale not given here; Beta-2 adrenergic receptor (Homo sapiens), P07550;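 active = response above a set limit, near 3 SD of response in nonfluorescent compounds, cut at about 42% in these data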;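 also: stock transfer was 100 nL into about 11 µL; a reference agonist was the positive control; negative values mostly stem from fluorescent compounds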
ALR H2O2 inh – inhibitors of human ALR sulfhydryl oxidase, primary screen, biochemical, H2O2 detection, HRP-luminol luminescence, single point | FAD-linked sulfhydryl oxidase ALR (Homo sapiens), P55789 | 3.8% of 290,000 active | purified ALR, DTT oxidation | inhibition, % (no concentration beside the values);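 active = mean and each replicate at 75% or more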;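 also: stock transfer was 7.5 nL into about 7.5 µL; 0% = neutral wells and 100% = wells with inactivated enzyme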
Target sequence (P55789 whole entry, looked up): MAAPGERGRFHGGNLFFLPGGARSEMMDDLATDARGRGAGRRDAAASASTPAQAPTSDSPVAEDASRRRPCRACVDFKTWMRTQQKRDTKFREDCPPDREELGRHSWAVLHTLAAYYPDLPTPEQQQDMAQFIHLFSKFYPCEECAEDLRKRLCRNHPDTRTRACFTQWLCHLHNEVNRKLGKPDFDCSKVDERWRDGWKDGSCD
FGF22 binding – binders of human FGF22 protein, primary screen, FGF22 synaptogenesis inhibitor project, biophysical, thermal shift, single point; Fibroblast growth factor 22 (Homo sapiens), Q9HCT0; recombinant FGF22 thermal shift, SYPRO orange fluorescence; percent of sucrose octasulfate shift, DMSO zero; calls only at 9.99 µM; 1.5% of 340,000 active; AID 651658, 2012;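 active = melting point raised past a set limit in the mean and every replicate; three in four hits are not shown here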
rRNA inh HTS – reduced GFP signal of wild-type E. coli, primary screen, bacterial rRNA inhibitor project, GFP/RFP fluorescence, OD600, single point. E. coli WT GFP vs humanized-ribosome RFP mutants, 24 h; hits give low values; DMSO median 0, no signal -100. AID 720706, 2013. 1.6% of 350,000 active. GFP signal change (wild-type ribosome), % (test concentration not listed);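 active = significant combined selectivity score with lowered wild-type GFP, culture density cut under 30%, mutant RFP and density less affected; inactive = any of these conditions unmet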; also: one replicate is shown; some compounds called inactive have numbers as strong as hits
Ecoli growth – E. coli growth inhibition, primary screen, OD600; Escherichia coli growth, 23 h; hits give low values; OD600 absorbance (no concentration beside the values); 0.21% of 330,000 active; AID 1053175, 2014;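 active = OD600 absorbance below the run mean of sample wells minus 3.6 SD, in any replicate, cut at about 0.56 in these data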;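 also: stock transfer was 300 nL into about 60 µL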
UCH37 inh – inhibitors of human UCH37 deubiquitinase, primary screen, biochemical, Ub-AMC cleavage, fluorescence. 0.33% of 330,000 active. inhibition, % (concentration not given with the values). AID 588478, 2011. purified proteasome/UCH37;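 active = mean of two replicates above 20%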;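 also: 0% = compound-free wells with enzyme and 100% = wells lacking proteasome; stock transfer was 100 nL into about 20 µL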
Target sequence (Q9Y5K5 whole entry, looked up): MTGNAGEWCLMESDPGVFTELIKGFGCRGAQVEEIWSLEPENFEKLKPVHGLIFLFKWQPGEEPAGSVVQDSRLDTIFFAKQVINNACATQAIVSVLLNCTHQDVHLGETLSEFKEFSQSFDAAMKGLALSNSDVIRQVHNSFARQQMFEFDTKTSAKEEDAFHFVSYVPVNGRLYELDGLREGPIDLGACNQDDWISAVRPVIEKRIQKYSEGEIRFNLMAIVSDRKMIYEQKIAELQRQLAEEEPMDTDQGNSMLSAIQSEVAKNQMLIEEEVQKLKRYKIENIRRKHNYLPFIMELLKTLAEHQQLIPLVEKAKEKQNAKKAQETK
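Material: Human UCH37 enzyme supplied as purified proteasome complex | Schedule: 30 min preincubation with enzyme, 25 min cleavage at room temperature | Detection: AMC fluorescence 355/460 nm | Measure: % inhibition of Ub-AMC cleavage fluorescence | Controls: Wells without proteasome as full block, compound-free enzyme plus substrate as uninhibited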
HNF4A DNA FP – change in binding of human HNF4A to DNA, primary screen, biochemical, fluorescence polarization, FITC-DNA | 1 h | activity change, % at 10 µM | 0.3% of 360,000 active | AID 1224865, 2016 | Hepatocyte nuclear factor 4-alpha (Homo sapiens), P41235; in the data active = activity change above about 30%, passing the limit was not always enough;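 also: controls were the assay level and a saturating level of protein; the project sought stronger binding though the title names inhibitors; some compounds called inactive have numbers as strong as hits; positive values seem to mean higher polarization but the record does not say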
Target sequence (P41235 whole entry, looked up): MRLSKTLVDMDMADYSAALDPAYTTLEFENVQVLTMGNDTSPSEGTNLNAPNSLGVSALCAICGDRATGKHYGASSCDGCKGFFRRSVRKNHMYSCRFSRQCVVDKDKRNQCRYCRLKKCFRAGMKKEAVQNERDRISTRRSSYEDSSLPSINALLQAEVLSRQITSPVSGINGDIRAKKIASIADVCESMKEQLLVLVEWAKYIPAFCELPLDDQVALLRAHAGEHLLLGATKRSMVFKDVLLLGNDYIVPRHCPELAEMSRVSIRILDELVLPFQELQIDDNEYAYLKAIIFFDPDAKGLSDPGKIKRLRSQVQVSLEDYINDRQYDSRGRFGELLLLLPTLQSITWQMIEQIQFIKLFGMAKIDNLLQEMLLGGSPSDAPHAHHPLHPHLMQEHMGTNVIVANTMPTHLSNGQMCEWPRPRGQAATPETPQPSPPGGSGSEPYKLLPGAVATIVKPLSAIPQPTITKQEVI
rRNA inh HTS OD600 – further read-out of rRNA inh HTS, marked with its call; OD600 change, %; measured here: OD600 growth;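 optical density of the mix in the first replicate; 0 = DMSO median and -100 = no signal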
rRNA inh HTS RFP – further read-out of rRNA inh HTS, marked with its call; RFP signal change, %; measured here: RFP humanized mutant strains;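 first replicate; 0 = DMSO median and -100 = no signal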
An asterisk follows results filed as active; i = inactive; . = not tested or not shown; & = joins results of further samples.

structure	Beta2AR agonist	ALR H2O2 inh	FGF22 binding	rRNA inh HTS	rRNA inh HTS OD600	rRNA inh HTS RFP	Ecoli growth	UCH37 inh	HNF4A DNA FP
CN1CC(=O)N(CC(=O)Nc2ccc3c(c2)CCC3)C1=O	-3.8	.	i	23.1	15.2	4.0	0.704	2.2	0.7
O=C(Nc1ccncc1)C1CC(=O)N(c2ccc(F)cc2)C1 (stereo not drawn)	-5.5	1.4	i	-3.7	-3.6	2.0	0.658	2.2	1.3
O=C(N1CCCCC1)N1CCN(c2ccc(Cl)cc2)CC1	4.5	98.3*	.	.	.	.	0.72	5.0	-1.3
CCCCSC(=S)NC1CCS(=O)(=O)C1 (stereo not drawn)	1.5	-9.4	i	4.8	10.2	3.9	0.663	2.3	-0.2
COc1ccc(OC)c(C(C)NC(=O)c2ccco2)c1 (stereo not drawn)	-13.4	-4.4	.	.	.	.	0.709	4.4	0.7
COc1cccc2cc(C(=O)NCc3ccc(C)cc3)c(=O)oc12	3.2	1.5	.	.	.	.	0.703	2.2	4.2
COCCN(C(=O)C(C)C)c1nnc(-c2cccc(C)c2)s1	-5.3	-11.3	.	-20.4	-18.7	-8.1	0.729	0.7	6.9
COc1ccc(C(=O)CSc2nc3ccccc3n2CC(=O)c2ccccc2)cc1	11.0	-4.3	i	-27.8*	-2.2*	-1.9*	0.719	-0.6	-1.2
COc1ccc(C(=O)Nc2ccc(Cl)cc2C(=O)N2CCOCC2)cc1	-5.2	1.1	i	13.2	10.3	4.9	0.709	2.0	-0.3
Cc1ccc(S(=O)(=O)CCC(=O)N(C)C2CCCCC2)cc1	-7.6	12.6	i	6.0	2.4	-0.6	0.709	0.9	-0.4
CC1CC1C(=O)OCC(=O)NNC(=O)c1ccc([N+](=O)[O-])cc1 (stereo not drawn)	3.8	-15.9	i	-13.3	1.6	-1.1	0.653	3.3	1.8
Cn1c(CC(=O)Nc2ccc(Cl)c(Cl)c2)nnc1SCC(=O)N1CCN(c2ccccc2)CC1	-8.2	-5.2	i	-16.2	-21.1	29.8	0.722	3.2	1.9
CCc1cc2cccc(C)c2nc1SCC(=O)Nc1cc(C)on1	3.0	3.4	i	27.1	14.6	0.4	0.671	0.6	0.0
CCOc1ccc(Cn2c(=O)sc3ccccc32)cc1OC	-12.1	-6.2	i	-15.2	22.5	-2.2	0.656	0.6	2.6
Cc1ccc(/C=C2\NC(=S)NC2=O)cc1[N+](=O)[O-]	-0.7	-1.5	i	10.4	-3.2	-2.2	0.673	5.7	1.9
COc1ccc(OC)c(NC(=O)CCc2nnc3ccc(N4CCC(C)CC4)nn23)c1	-10.6	-12.8	i	-1.7	-2.7	2.6	0.675	2.1	0.9
COc1ccc(CC(=O)NCc2ccc3c(c2)cc(C)n3C)cc1	0.1	-1.6	i	14.4	20.6	60.7	0.673	-2.0	-0.1
COc1cccc(OC)c1C(=O)Nc1ccc(CN2CCCCC2)cc1	-3.2	.	.	.	.	.	0.719	0.4	-6.0
CCN(C[C@H]1N[C@@](Cc2ccccc2)(C(=O)OC)[C@H]2C(=O)N(Cc3ccccc3)C(=O)[C@@H]12)C(=O)NC(C)C	0.3	0.7	i	-3.2	-10.6	3.0	0.692	3.3	-0.6
COc1cc(C(=O)NCCCOC(C)C)ccc1OC1CCN(C(C)=O)CC1	0.1	-6.2	i	14.3	9.7	12.7	0.698	2.1	2.5
COc1ccc(C(CNC(=O)c2cccc(S(=O)(=O)Nc3ccc(Br)cc3)c2)N(C)C)cc1 (stereo not drawn)	16.9	.	i	-29.2	-38.8	-8.2	0.663	-0.8	0.7
CC(=O)ON1C(C)(C)Cc2noc(N)c2C1(C)C	-15.6	1.1	.	.	.	.	0.72	-1.0	2.3
CCc1ccccc1NC(=S)N(CCN(C)C)C(C)c1ccccn1 (stereo not drawn)	-5.3	10.1	.	.	.	.	0.708	3.0	1.3
CN(C(=O)COC(=O)c1ccc(Cl)s1)C1(C#N)CCCCC1	6.2	.	.	2.7	13.8	-0.8	0.616	0.1	-2.6
CS(=O)(=O)N(CC(N)=O)c1cccc(Br)c1	-9.1	-4.1	.	.	.	.	0.738	-7.3	0.1
COc1ccccc1CCC(=O)N(C)C1CCCN(Cc2ccccc2F)C1 (stereo not drawn)	-4.0	.	i	-5.2	-3.8	-3.0	0.678	0.9	-3.8
COC(=O)c1ccccc1NC(=O)C(C)n1nc(C)c2c(C)n(-c3ccccc3)nc2c1=O (stereo not drawn)	41.1	-1.6	i	1.4	-13.1	3.9	0.708	-0.6	2.3
CC(=O)C1=C(O)CC(C)(C)CC1=NCCc1nc2ccccc2[nH]1	-4.5	-26.4	i	3.3	2.8	1.8	0.751	2.2	2.4
Cc1cc(C)nc(NS(=O)(=O)c2ccc(NC(=O)c3cc4c(=O)n5cccc(C)c5nc4n3C)cc2)n1	5.8	12.3	.	.	.	.	0.655	-228.4	-2.3
CCCN1CCN(C(=O)CCNC(=O)Cn2cnc3ccccc3c2=O)CC1	2.1	-1.8	i	14.7	10.0	0.8	0.691	1.7	2.3
O=C(Nc1ccc2oc(-c3cccnc3)nc2c1)c1ccc(Br)o1	-6.0	-31.3	.	.	.	.	.	3.1	-3.1
C=CCOc1ccc2nnc(C)n2n1	-2.9	-1.6	i	7.4	10.5	-0.2	0.71	-0.5	-0.6
CSc1ccc(-c2cc(=O)c3ccccc3o2)cc1	3.5	2.2	i	-14.4	-21.7	-6.0	0.656	i	2.6
Nc1nc(N)nc(-c2ccccn2)n1	-2.8	-3.0	.	.	.	.	0.681	2.2	-3.0
CCOc1cc(C(=O)Nc2cc(OC)cc(OC)c2)ccc1OCC(=O)N1CCOCC1	7.2	-6.5	i	-0.6	-4.9	2.5	0.663	4.8	-3.9
CCCCNC(=O)Nc1c(C(=O)OC)[nH]c2ccc(C)cc12	-0.7	-6.7	.	.	.	.	0.821	-8.2	0.3
CCOc1ccc(S(=O)(=O)Nc2cc(C)ccn2)c2ccccc12	-3.8	-2.6	.	.	.	.	0.752	3.5	5.3
C[C@H](CO)N1C[C@H](C)[C@H](CN(C)Cc2ccncc2)Oc2ncc(C#CC3CC3)cc2C1=O	.	.	i	-2.4&-2.1	5.0&2.2	3.9&-0.5	.	.	1.8
COc1cc(C)nc(Oc2ccc(/C=N/O)cc2)n1	-7.3	98.3*	.	.	.	.	.	.	-0.3
O=C1CC(Sc2ccc(Cl)cc2)C(=O)N1c1ccc2c(c1)OCCO2 (stereo not drawn)	-11.9	-16.3	i	-8.4	-11.1	3.0	0.642	2.8	2.1
Cc1nnc(SCC(=O)c2cc(C)n(-c3ccc4c(c3)OCO4)c2C)s1	3.5	-22.6	.	-33.9	-33.6	-7.1	0.655	2.1	-1.8
CC(=O)N/C(=C\c1cccc([N+](=O)[O-])c1)C(=O)NC(C)C	3.3	41.6	i	9.7	5.4	-5.2	0.722	2.7	3.7
Cc1cccc(NC(=O)Cn2cccc2)c1	1.4	4.8	i	8.7	2.4	-4.2	0.714	-1.0	-2.6
CCOC(=O)C1(CCOc2ccccc2)CCN(Cc2cccn2-c2cccnc2)CC1	-6.8	-2.6	.	-20.9	-26.4	-4.4	0.7	2.2	-3.4
O=C1/C(=C/c2ccccn2)SC(=S)N1c1cccc(O)c1	-12.4	-4.2	i	7.6	-2.3	-2.6	0.662	2.3	1.5
CCN1CCN(C(=O)Nc2cc(Cl)ccc2OC)CC1	-3.5	-7.5	i	-1.9	0.0	0.5	0.699	0.5	7.4
Cc1ccc(C2NNC(=O)C2NC(=O)c2ccccc2)cc1 (stereo not drawn)	-0.5	16.5	.	.	.	.	0.71	3.0	3.0
CC(C)c1cccc(C(C)C)c1Nc1cn[nH]c1	.	.	i	-8.8	-21.2	-8.3	.	.	0.7
O=C(N/N=C/c1cccs1)c1ccc(-n2cccc2)cc1	-16.1	-1.4	i	-22.6*	-13.2*	-0.8*	.	.	-4.9
CC1CCCC(NC(=O)COC(=O)/C=C/c2ccc3c(c2)OCO3)C1C (stereo not drawn)	-1.7	2.1	i	17.7	11.1	6.3	0.719	-69.8	-0.5
CN1CCCN(C(=O)c2cc(-c3ccc(Cl)c(Cl)c3Cl)nc3ccccc23)CC1	7.8	14.5	i	21.0	9.5	4.9	0.636	4.8	2.0
Cc1ccc(C(C)C)c(OCC(=O)Nc2ccc(N3CCN(S(C)(=O)=O)CC3)cc2)c1	-6.5	-4.3	.	.	.	.	0.723	1.7	-1.0
Cc1ccc2c(c1)N(C(=O)CSc1nncn1C)C(C)(C)c1ssc(=S)c1-2	-8.4	13.6	.	.	.	.	0.776	8.2	-2.3
O=C(Cc1c(F)cccc1Cl)Nc1nc2ccccc2s1	27.3	36.5	i	-60.4	-79.4	-21.1	.	.	4.7
COc1cc(C(C)=O)ccc1OCC(O)CN(CCO)Cc1ccccc1 (stereo not drawn)	-3.6	-3.0	i	4.7	6.1	4.0	0.684	2.3	-1.1
COc1ccc2nc(NC(=O)CN(c3ccc(C)cc3)S(=O)(=O)c3c(C)nn(C)c3C)sc2c1	12.8	-31.9	.	.	.	.	0.668	2.6	-1.4
COc1cc(/C=C2/C(=O)NN(c3ccccc3)C2=O)cc(Br)c1O	14.5	98.5*	i	-11.2	12.6	-1.8	0.664	17.2	-0.5
COc1ccc(OC)c(NC(=O)NNC(=O)c2cc3occc3[nH]2)c1	-0.9	52.9	i	6.4	7.7	1.2	0.675	3.4	2.6
COc1ccc(/C=C/C(=O)OCC(=O)N2CC(=O)Nc3ccccc32)cc1S(=O)(=O)N1CCOCC1	1.9	-4.6	i	5.7	-2.3	3.6	0.713	4.7	1.2
Cc1c(Cl)cccc1NC(=O)CSc1nnc(C)n1CC1CCCO1 (stereo not drawn)	3.0	2.0	i	2.9	9.7	2.5	0.642	1.7	2.9

The results go on:
structure	Beta2AR agonist	ALR H2O2 inh	FGF22 binding	rRNA inh HTS	rRNA inh HTS OD600	rRNA inh HTS RFP	Ecoli growth	UCH37 inh	HNF4A DNA FP
COCCNc1nc2nonc2nc1N1CCCC1c1nccs1 (stereo not drawn)	4.0	-34.4	i	28.4	13.4	7.1	0.686	1.2	-10.9
c1ccc(CSc2nnc(-c3ccco3)c(-c3ccco3)n2)cc1	4.2	.	.	.	.	.	0.75	6.9	-31.6
N#Cc1ccc(NC(=O)COC(=O)C2=COCCO2)cc1	0.1	-2.5	.	6.1	4.4	-0.4	0.751	-1.9	4.1
COc1ccc(C(=O)Nn2c(SCC(=O)NCC3CCCO3)nc3ccccc3c2=O)cc1 (stereo not drawn)	0.0	-6.4	.	.	.	.	0.713	-4.4	-1.1

In another format: 2 of the compounds above
smiles: COCCNc1nc2nonc2nc1N1CCCC1c1nccs1 (stereo not drawn)
  Beta2AR agonist: 4.0 | ALR H2O2 inh: -34.4 | FGF22 binding: i | rRNA inh HTS: 28.4 | rRNA inh HTS OD600: 13.4 | rRNA inh HTS RFP: 7.1 | Ecoli growth: 0.686 | UCH37 inh: 1.2 | HNF4A DNA FP: -10.9

smiles: c1ccc(CSc2nnc(-c3ccco3)c(-c3ccco3)n2)cc1
  Beta2AR agonist: 4.2 | ALR H2O2 inh: . | FGF22 binding: . | rRNA inh HTS: . | rRNA inh HTS OD600: . | rRNA inh HTS RFP: . | Ecoli growth: 0.75 | UCH37 inh: 6.9 | HNF4A DNA FP: -31.6

These rows are one share of the data; the hit share may differ from the screen's.
